Mtb H37Rv – Confirmatory growth inhibition assay against Mycobacterium tuberculosis H37Rv, potency (AID 1949) | actives 1.6% (n = 100,000) | most inactive calls were filed without a number and no value below 0 was filed | inhibition, % at 10 µg/mL, or IC50 in µg/mL where a hit was titrated;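 active means confirmed in a dose series; inconclusive means about 50% or more but not retested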;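 further: bacteria grown 7 days with compound before Alamar blue readout; 0% = untreated bacteria and 100% = reference antibiotic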
An asterisk follows results filed as active; i = inactive; ? = inconclusive. Some of the compounds tested; rates above refer to the full screens.

The opening 4 records as a preview:
Structure | Mtb H37Rv
O=C1NC(=O)c2cc(S(=O)(=O)N(CCO)CCO)cc3cccc1c23 | i
COc1ccc(-c2nn3c(Cn4cnc5ccccc54)nnc3s2)cc1OC | i
COc1ccc(OC)c(-n2c(-c3cc(-c4ccco4)[nH]n3)n[nH]c2=S)c1 | i
CC(C)NC(=O)Cn1cnc2c1c(=O)n(C)c(=O)n2C | i

The whole of this part, previewed entries included:
Structure | Mtb H37Rv
O=C1NC(=O)c2cc(S(=O)(=O)N(CCO)CCO)cc3cccc1c23 | i
COc1ccc(-c2nn3c(Cn4cnc5ccccc54)nnc3s2)cc1OC | i
COc1ccc(OC)c(-n2c(-c3cc(-c4ccco4)[nH]n3)n[nH]c2=S)c1 | i
CC(C)NC(=O)Cn1cnc2c1c(=O)n(C)c(=O)n2C | i
CCC(=O)Nc1ccc(S(=O)(=O)N(C(=O)CC)c2ccc(S(N)(=O)=O)cc2)cc1 | 2%
COc1ccc(-c2csc(NC(=O)C(C)C)c2C(=O)O)cc1 | i
COC(=O)C(C)Oc1ccc(C=O)cc1OC (stereo not drawn) | i
COC(=O)c1ccc(NC(=O)CN(Cc2ccccc2F)S(=O)(=O)c2ccc(Cl)cc2)cc1 | i
COc1ccc(F)cc1S(=O)(=O)NC(C)c1ccccc1 (stereo not drawn) | i
CCC(CC)C(=O)Nc1cccc(C(=O)Nc2cc(OC)c(Cl)cc2OC)c1 | 3%
COc1cc(CO)cc(I)c1OCc1ccc(Cl)cc1 | 39%
COc1ccc(CN2C(=O)C(O)(CC(=O)c3ccc4ccccc4c3)c3ccccc32)cc1OC (stereo not drawn) | i
Cc1cc(NC(=O)C(C)(C)C)ccc1NC(=O)c1ccco1 | i
Cc1ccc(NC(=O)c2cc3ccccc3o2)c(Br)c1 | 25%
O=C(c1ccc(F)cc1)N1CCN(c2ccc([N+](=O)[O-])c(Sc3nc4ccccc4[nH]3)c2)CC1 | i
Cc1cc(C(F)(F)F)nn1CC(=O)Nc1ccccc1C(F)(F)F | i
COc1ccc(C(=O)NCC2(C)CC(NC(=O)c3ccc(OC)cc3)CC(C)(C)C2)cc1 (stereo not drawn) | i
Cn1c(SCC(=O)NCc2ccco2)nc2c1c(=O)n(Cc1ccc(Cl)cc1Cl)c(=O)n2C | i
CN1CCN(S(=O)(=O)c2ccc3c4c(cccc24)C(=O)N3)CC1 | i
CCN(CC)C(=S)NC(=O)c1cc(OC)c(OC)c(OC)c1 | i
Clc1ccccc1/C=C/c1nc(-c2cccnc2)no1 | 1%
CCOC(=O)COc1ccc(-c2nn[nH]n2)cc1 | i
COc1ccccc1C(=O)Nc1ccc2oc(-c3cccc(Cl)c3)nc2c1 | i
COc1cc(NS(=O)(=O)c2ccc(NC(=O)c3ccc(S(=O)(=O)N4CCCCC4)cc3)cc2)ncn1 | i
CCCn1cnc2cc(NCc3ccccc3O)ccc21 | i
CCCN(Cc1cc2cccc(C)c2[nH]c1=O)S(C)(=O)=O | i
O=C1CC(Nc2ccc(N3CCOCC3)cc2)C(=O)N1c1ccc(Cl)c(C(F)(F)F)c1 (stereo not drawn) | i
O=C(Nc1cccc(Cl)c1)C(=O)N1CCCCC1 | i
COc1ccc(NS(=O)(=O)c2ccc(Br)s2)c(OC)c1 | i
O=c1cc(-c2ccc(Br)cc2)[nH][nH]1 | i
CC(=O)c1c(C)oc2ccc(N(C(=O)c3ccncc3)S(=O)(=O)c3ccc(F)cc3C)cc12 | i
Cc1cc(C)n(C(=O)c2c(-c3ccccc3)noc2C)n1 | i
O=C(NCc1ccncc1)C1COc2ccccc2O1 (stereo not drawn) | i
CCc1ccc2oc(-c3ccc(C)c(NC(=S)NC(=O)c4ccc(Cl)cc4Cl)c3)nc2c1 | i
COc1ccc(O)c(-c2cc(-c3ccc(Cl)cc3)n[nH]2)c1 | 5%
COc1ccc(NC(=S)Nc2cccc(OC)c2)cc1 | i
CCS(=O)(=O)N1CCN(c2ccccc2)CC1 | 0%
O=C(NCc1ccccc1Cl)c1ccc(Cn2cc(Cl)cn2)cc1 | i
CC(=O)c1cccc(NC(=S)NC2CCN(Cc3ccccc3)CC2)c1 | i
C=CCc1ccccc1OCCCNCCOC | i
Cc1cc(Cl)ccc1OCC(=O)N1CCN(Cc2ccccc2)CC1 | i
CCOC(=O)c1c(NC(=O)c2ccccc2SCCOC)sc2c1CCCC2 | 7%
CC(C)C(=O)Nc1nc(-c2cccc3ccccc23)cs1 | i
COc1ccc(OC)c(S(=O)(=O)N2CCN(c3ccccn3)CC2)c1 | 1%
CCc1c(C)c2ccc(O)c(CN(C)C)c2oc1=O | i
Cc1ccc(NC(=O)COc2cc(Cl)c(Cl)cc2Cl)cc1C | i
COc1ccc(-c2cc(C(F)(F)F)n3nc(C(N)=O)c(Cl)c3n2)cc1 | i
COc1ccc(NC(=O)CCCOc2cccc(C)c2)cc1Cl | 4%
CCN(C(=O)CSc1ccc(Br)cc1)c1ccccc1 | i
Cc1ccc(F)cc1NC(=O)CCCc1ccccc1 | i
S=C(Nc1ccc(Br)cc1Cl)N1CCC2(CC1)OCCO2 | i
CCOC(=O)Nc1sc(C)c(C)c1C(=O)OC(C)C | i
COc1ccc(OC)c(NC(=O)C(Sc2ccccc2)c2ccccc2)c1 (stereo not drawn) | 0%
COc1cc(Cc2ccc(NC(=O)c3cccs3)c(OC)c2)ccc1NC(=O)c1cccs1 | i
CC(=O)Nc1cc(S(=O)(=O)C(F)(F)F)ccc1Cl | i
O=C(CCS(=O)(=O)Cc1ccccc1)N1CCc2ccccc2C1 | i
Cc1ccc(C)c(OCCCC(=O)Nc2sc3c(c2C(N)=O)CCCC3)c1 | i
Cc1cc(OC(=O)c2ccccc2F)c(C(C)C)cc1NC1=NS(=O)(=O)c2ccccc21 | i
CC(=O)Nc1nnc(SCC(=O)N2CCN(c3ccc(Cl)cc3)CC2)s1 | i
Cc1cc(S(=O)(=O)N2CCCC2)c(C)c(C)c1C | i

Continuation.
Structure | Mtb H37Rv
CCCCn1c(C23CC4CC(CC(C4)C2)C3)n[nH]c1=S | 24%
CC1CCCC(C)N1C(=O)COc1ccc(Cl)cc1Br (stereo not drawn) | 8%
CC(C)(C)C1CCC(C2(O)C(=O)Nc3ccccc32)C(=O)C1 (stereo not drawn) | i
COc1cc(SC)ccc1C(=O)Nc1ccc(C)cc1 | 21%
COC(=O)c1cc(-c2ccccc2)sc1NC(=S)Nc1ccc(Cl)cn1 | i
COc1c(Cl)cc(Cl)cc1C(=O)Nc1ccc(N2CCN(C)CC2)cc1 | i
O=c1c(NC2CC2)c(Br)cnn1-c1ccccc1 | i
CCOc1cccc(Oc2ccc(C(F)(F)F)cn2)c1 | i
Cc1cc(C(F)F)n2nc(C(=O)Nc3cccc(C(F)(F)F)c3)nc2n1 | 6%
CCOC(=O)N1CCN(CC(=O)Nc2ccc(Oc3ccccc3)cc2)CC1 | i
Cc1cccc(NC(=O)C2CC(=O)OC23CCCCC3)c1 (stereo not drawn) | i
CCCS(=O)(=O)c1ccc(COC(=O)c2ccccc2Nc2ccccc2)cc1 | 3%
CC(=O)N(C(C)=O)c1c(N2CCCCC2)c2ccccc2oc1=O | i
O=C(Nc1cc(Cl)ccc1O)c1cc(Cl)ccc1Cl | 12µg/mL*
O=C(Cc1ccc(F)cc1)Nc1ccccc1C(=O)NC1CCCCC1 | i
Cc1cc(Cl)ccc1NC(=O)COc1ccc(C(C)C)cc1Br | i
CCCCOc1ccc(Br)cc1C1NC(=S)NC(C)=C1C(=O)OCC (stereo not drawn) | i
Cn1c(=O)c2c(nc(N3CCCCC3)n2Cc2cccc(F)c2)n(C)c1=O | i
CCOC(=O)c1sc(NC(C)=O)c(C#N)c1C | i
O=C(CSc1nnc(-c2cccnc2)n1Cc1ccccc1)Nc1ccc(Br)cc1 | 5%
CCOC(=O)C1=C(CSc2nccn2C)NC(=O)NC1c1cc(C)ccc1C (stereo not drawn) | 1%
COc1ccc(OC)c(NC(=O)CN(C)S(=O)(=O)c2ccc(Cl)cc2)c1 | i
CCCSc1nnc(-c2ccccc2)n1-c1ccc(C)c(C)c1 | i
CCOC(=O)c1ccc(NC(=O)C(CC)Sc2nc(SC)ns2)cc1 (stereo not drawn) | i
COc1ccc(OCCNC(=O)c2ccc(Br)cc2)cc1 | 6%
Cc1cc(C(F)(F)F)nc(/N=C(\N)Nc2ccc(Oc3ccccc3)cc2)n1 | 49%
CCc1ccc(-n2c(Cc3ccccc3)n[nH]c2=S)cc1 | i
OCCN1CCN(C(=S)c2ccc(Cl)cc2)CC1 | i
COC(=O)c1c(NC(=O)c2c(C)noc2C)sc2c1CCCCCC2 | i
O=c1[nH][nH]c(-c2ccccc2)c1Cc1c(-c2ccccc2)[nH][nH]c1=O | i
O=C(CC1COc2ccccc2O1)NCc1ccccc1 (stereo not drawn) | 2%
COC(=O)c1ccccc1NC(=O)CNC(=O)c1sc2ccccc2c1Cl | 2%
c1ccc(CN2CCC(N3CCC(N4CCc5ccccc5C4)CC3)CC2)cc1 | i
COC(=O)c1sccc1NC(=O)CN1CCN(c2ccc(F)cc2)CC1 | i
Cc1ccccc1OCC(=O)Nc1cccc(C(=O)O)c1 | i
CN1CCN(C(=O)Cc2ccc(Br)cc2)CC1 | i

Fetched by structure from the entries so far:
Structure | Mtb H37Rv
O=c1[nH][nH]c(-c2ccccc2)c1Cc1c(-c2ccccc2)[nH][nH]c1=O | i
O=C(CC1COc2ccccc2O1)NCc1ccccc1 (stereo not drawn) | 2%

The list goes on:
Structure | Mtb H37Rv
CCCOc1ccccc1-n1sc2c(c1=S)-c1cc(OC)cc3c1N(C(=O)C3=O)C2(C)C | i
Cc1ccc(OCC(=O)Nc2sc(C)c(C)c2C(N)=O)cc1 | i
COc1cccc(Nc2ncnc3c2cnn3-c2ccccc2)c1 | 2%
COc1ccc(OCCCCOc2ccc(OC)cc2)cc1 | i
CSc1ccccc1NC(=O)c1ccccc1N(Cc1ccccc1)S(C)(=O)=O | i
O=C(NC(=S)NC12CC3CC(CC(C3)C1)C2)c1cc(Br)ccc1Cl | 6%
O=C(CSc1nc(N2CCOCC2)nc(N2CCOCC2)n1)N1CCc2ccccc21 | i
C=CCOc1ccc(NC(=O)C(=O)NCCCN2CCOCC2)cc1 | i
NC(=O)c1ccc(NC(=O)C(Cl)(Cl)Cl)cc1 | i
CCn1c(SCC(=O)Nc2cc(C)ccc2OC)nnc1-c1ccc(Cl)cc1Cl | i
O=C(NCCC1=CCCCC1)c1ccc2snnc2c1 | i
Cc1ccc(OCC(=O)N=Nc2c(O)[nH]c3ccc(C)cc23)c(Br)c1 | i
CC(O)CNCCCOc1ccc2ccccc2c1Cl (stereo not drawn) | 5%
Cc1ccc(-c2csc3ncnc(N4CCCC4)c23)cc1 | 3%
CCn1ncc(Br)c1C(=O)Nc1ccc(OC(F)(F)F)cc1 | i
CC(=O)c1cccc(NC(=O)c2sc3cc(Cl)ccc3c2Cl)c1 | i
OC(Cn1c2ccccc2c2ccccc21)C[n+]1ccccc1 (stereo not drawn) | 7%
CC(C)(C)Cc1nnc(NC(=O)Cc2ccc(Br)cc2)s1 | 4%
CC(NC(=O)Nc1ccccc1C(F)(F)F)C1CCCO1 (stereo not drawn) | i
COc1ccc(-n2c(SCC(N)=O)nnc2-c2cccs2)cc1 | i
CCc1c(C)sc(NC(=S)Nc2ccc(OCc3ccccc3)cc2)c1C(=O)OC | i
CSc1cccc(NC(=O)Cn2cc(Br)c([N+](=O)[O-])n2)c1 | 2%
Cc1cc(C)cc(NC(=O)CN(Cc2ccc(F)cc2)S(=O)(=O)c2ccc(Cl)cc2)c1 | i
Cc1sc2ncnc(Nc3cccc(F)c3)c2c1C | 6%
CCc1cc(-c2n[nH]c(C)c2Oc2ccccc2)c(O)cc1OC(C)C | 23%
O=C(N=Nc1c(O)[nH]c2ccc(Br)cc12)c1ccccc1 | ?
O=c1c2ccccc2ncn1C1CCCCC1 | i
CCc1ccccc1N(CC(=O)Nc1ccccc1Br)S(=O)(=O)c1ccc(C)cc1 | i
CCc1ccc(OCCOc2cccc3ccc(C)nc23)cc1 | 4%
Cc1ccc(NC(=S)NNC(=O)c2ccc(Cl)cc2)cc1C | i
O=C(COc1ccc(F)cc1)c1ccc2c(c1)CCCC2 | 44%
COc1cc(CNC(C)(C)CO)ccc1OCC(=O)NC1CCCCC1 | i
N#CCC(=O)NNC(=S)Nc1ccccc1C(F)(F)F | i
CCC(=O)n1cc(C=O)c2ccccc21 | i
CN(c1ccc(C(=O)N2CCCCC2)cc1)S(C)(=O)=O | 0%
CCn1c2ccccc2c2cc(NC(=O)C(=O)NCCN3CCOCC3)ccc21 | i
C=CCNC(=O)c1ccccc1NS(=O)(=O)c1ccccc1 | i
Cc1ccc(C(CC(=O)NCc2ccco2)c2ccc(OC(C)C)cc2)cc1 (stereo not drawn) | i
CC(=O)Nc1cc(-c2nc3ccccc3s2)c(Cl)cc1Cl | i
COc1ccc(OC)c(S(=O)(=O)Nc2cccc(C(C)=O)c2)c1 | 2%
CCOC(=O)c1c(N)n(-c2ccc(F)cc2)c2nc3ccccc3nc12 | 6%
COc1ccccc1OCc1nc2c3c(-c4ccccc4)c(-c4ccccc4)oc3ncn2n1 | i
CS(=O)(=O)N1CCN(C(=O)c2csc3ccccc23)CC1 | i
CN(CC(=O)Nc1ccccc1C(N)=O)S(=O)(=O)c1ccccc1 | i
O=C1N/C(=N/N=C/c2ccccc2Cl)SC1Cc1ccc(Br)cc1 (stereo not drawn) | 1%
COC(=O)c1ccccc1NC(=O)C1CCN(S(=O)(=O)c2ccc(C)cc2)CC1 | 2%
